VCAM-1 up – boosters of cytokine-driven VCAM-1 levels – cell-based, plate reader, pooled HUVEC, TNFa stimulus (AID 455) | HUVEC TNFa-induced VCAM-1 immunofluorescence, plate reader; numbers were filed only for top-ranked candidate wells | augmentation, % at 5 µM | 10,000 tested, 0.2% active;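 active means a compound raising TNF-alpha-driven VCAM-1 surface staining, with its hit status upheld on visual or statistical review; inactive means the rest, including hits rejected on review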;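 further: 0% = TNFa with vehicle and 100% = strongest image-checked hit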
26S disassembly – blocks ATP-dependent breakdown of the yeast 26S proteasome | 24,000 tested, 0.2% active | anti-FLAG beads, GFP-proteasome disassembly, flow cytometry | inhibition of disassembly, % (test concentration not listed) | AID 751;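 active means above 40%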;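 further: plate controls were ATP control with full disassembly for no effect and ATP-gamma-S intact proteasomes for full effect; higher percent means more bead fluorescence retained so stronger block of disassembly; stock transfer was 100 nL into about 10 µL; wells with too few beads may also be inconclusive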
Starred values were filed as active, the others as inactive; i = inactive; . = not tested or not shown.

VCAM-1 up	26S disassembly	SMILES
.	-1.1	Cc1cc(NC(=O)CSc2nnc(C3COc4ccccc4O3)o2)no1 (configuration not stated)
.	0.2	CCC(=O)NC(C)C(c1cccs1)N1CCN(c2ccccc2)CC1 (configuration not stated)
70*	0.8	COc1ccc(S(=O)(=O)Nc2ccc(F)c(Cl)c2)cc1OC
i	-1.2	Cc1cc(C)c(C)c(OCC(=O)NCC2CCCO2)c1 (configuration not stated)
.	1.7	CCN1CCN(C(C(=O)NC2CCCC2)c2ccc(Cl)cc2)CC1 (configuration not stated)
.	5.7	O=C(NC(=O)c1cccc(OC(F)(F)C(F)F)c1)OC1CCS(=O)(=O)C1 (configuration not stated)
.	1.1	COc1ccc(-n2c(C)nc3c(cnn3-c3ccc(C)c(C)c3)c2=O)cc1
.	1.1	Cc1cccc(CN2CCN(CC(=O)NCc3ccc(F)cc3)C2=O)c1
i	0.9	COC(=O)c1ccc(CSc2ncnc3c2nnn3-c2ccc(OC)cc2)o1
i	-0.5	Cc1nc2ncnn2c(N2CCC(C(=O)NCC3CCCO3)CC2)c1Cc1ccccc1 (configuration not stated)
i	-1.7	O=C1c2cccnc2C(O)N1Cc1ccc(F)cc1 (configuration not stated)
.	-1.9	CCN(CCNC(=O)C1CCCN(S(=O)(=O)CC)C1)c1ccccc1 (configuration not stated)
.	-2.4	CCCCN(Cc1ccccc1)C(=O)C1CCCN(S(=O)(=O)c2cnc[nH]2)C1 (configuration not stated)
.	1.2	O=S(=O)(NCC1CCCO1)c1cc(Br)c(Br)s1 (configuration not stated)
i	-0.7	Nc1cccc(C(=O)O)c1
i	0.2	COc1ccccc1NS(=O)(=O)c1ccc(NC(=O)c2nc3ncccn3n2)cc1
.	2.4	O=C(CC(NCCN1CCOCC1)C(=O)O)Nc1cccc(Cl)c1 (configuration not stated)
i	-1.3	Cn1c(=O)c(=O)n(C)c2cc(S(=O)(=O)CCC(=O)N3CCOCC3)ccc21
.	0.0	Cc1ccc2c(c1)NC(=O)C(CC(=O)NCCCN1CCCCC1)O2 (configuration not stated)
.	-0.9	O=C(O)C1C2C=CC(C2)C1C(=O)N1CCN(CCO)CC1 (configuration not stated)
i	-0.1	CC1CCN(c2oc(-c3cccc4ccccc34)nc2C#N)CC1
i	1.9	COC(=O)COc1cccc(NC(=O)COc2ccccc2)c1
.	4.2	Cc1ccc(-n2c(=O)cc(N3CCc4ccccc4C3)[nH]c2=O)cc1
.	-5.5	COc1ccc(C2C(=O)c3ccccc3C2=O)c(OC)c1
.	0.5	Cc1ccccc1-n1nc2c(c1NC(=O)c1cc3ccccc3oc1=O)CS(=O)C2 (configuration not stated)
.	-0.5	COc1ccc(CN2C(=O)CN(C3CCCCCC3)C(=O)C2c2ccc(OC)c(OC)c2)cc1 (configuration not stated)
i	-0.2	CCCCOc1ccc(C(=O)N2CCC(C)CC2)cc1
.	0.9	CCN1CCN(CC(O)COc2cccc(OC)c2)CC1 (configuration not stated)
.	0.3	O=C(C1CC(c2ccc(F)cc2)=NO1)N1CCN(Cc2ccccc2)CC1 (configuration not stated)
.	1.4	CCCCNC(=O)CCn1c(=O)c2ccccc2n(CC(=O)Nc2ccccc2OCC)c1=O
.	-2.4	COc1ccc(C(=O)OCCN=C2NS(=O)(=O)c3ccccc32)cc1OC
.	1.1	COCCCNC(=O)CCS(=O)(=O)Cc1ccc(C)cc1
i	0.5	C#CCN1C(=O)C(O)(CC(=O)c2cccc(OC)c2)c2ccccc21 (configuration not stated)
.	0.7	CCC1Oc2ccc(C)cc2N(CC(=O)NCc2cc(OC)ccc2OC)C1=O (configuration not stated)
i	0.3	CCOC(=O)C1CCN(C(C)=C2C(=O)c3ccccc3C2=O)CC1
.	0.3	Cc1ccc(N(CC(=O)O)S(=O)(=O)c2cccc3nonc23)cc1
.	0.6	Cc1cc2c(c(=O)o1)C1(C(=O)N(CC(=O)O)c3ccccc31)C(C#N)=C(N)O2 (configuration not stated)
i	-1.2	O=C(Nc1cccc(F)c1)c1cccc(S(=O)(=O)N2CCOCC2)c1
.	-0.2	CCOC(=O)c1sc(=S)n(-c2ccc(F)c(F)c2)c1N
.	0.7	COc1ccc(-n2c(Cc3cccn3C)nnc2SCC(=O)N2CCCC2)cc1
i	-1.1	O=C(NCc1ccccc1)N[C@@H](Cc1ccccc1)C(=O)O
.	-0.6	CCOCCn1c(=O)c2c(nc3n2CCN3c2ccccc2)n(C)c1=O
.	-0.2	CCSc1nnc2c(n1)OC(c1ccc(C(=O)O)cc1)N(C(C)=O)c1ccccc1-2 (configuration not stated)
.	-1.5	COc1cc(C(=O)NCC(c2cccnc2)N2CCN(C)CC2)cc(OC)c1OC (configuration not stated)
i	-0.1	O=S1(=O)CC(N2CCOCC2)c2ccccc21 (configuration not stated)
i	-0.9	CCCCNC(=O)c1nnn(-c2ccccc2)c1N
i	10	N#Cc1cc2ccccc2nc1SCC(=O)Nc1ccccc1N1CCOCC1
.	0.3	CC12CC(NC(=O)N1c1cccc(C(=O)NCc3ccc4c(c3)OCO4)c1)c1cc(Cl)ccc1O2 (configuration not stated)
.	-0.5	CC(=O)c1cccc(NS(=O)(=O)c2c(C)noc2C)c1
i	-0.2	CC(=O)c1ccc(NC(=O)c2cc(CC(C)C)on2)cc1
i	-0.2	CCn1cnc2sc(C(=O)Nc3ccc4c(c3)OCO4)c(C)c2c1=O
i	1.1	CCCSc1nc(N)c(C#N)c(-c2ccc(C)cc2)c1C#N
.	0.7	CCCCn1c(SCC(=O)Nc2cc(C)on2)nc2ccsc2c1=O
.	1.1	CCS(=O)(=O)NCCc1cc2ccc(C)cc2[nH]c1=O
i	0.0	CC(=O)C1=C(C)Nc2ncnn2C1c1cccc(OCc2ccccc2)c1 (configuration not stated)
i	-0.3	COc1ccc(C2CC(C(F)(F)F)n3ncc(C(=O)NCc4cccnc4)c3N2)cc1OC (configuration not stated)
i	-0.2	CCN(C(=O)c1cc(Cl)ccc1OC)C1CCCCC1
.	1.7	COCc1cc(C)nc(SCC(=O)Nc2cccc3cccnc23)c1C#N
i	3.3	O=C(CCCn1c(=O)[nH]c2ccsc2c1=O)N1CCN(c2ccccn2)CC1
.	0.0	CCOc1ccccc1NC(=O)CCn1c(=O)oc2ccccc21

The results go on:
VCAM-1 up	26S disassembly	SMILES
i	0.2	COc1ccc(CNC(=O)c2cc(-c3ccc(OC)c(OC)c3)on2)cc1
i	-2.1	CCCC(=O)Nc1ccc2oc(-c3cccnc3)nc2c1
i	-0.5	Cc1ccc(Nc2nc(CSc3nnc(-c4cccs4)o3)cs2)cc1
i	3.1	Cc1cc(-c2ccccc2)c(C#N)c(N)n1
i	0.4	O=C(Nc1cccc(C(F)(F)F)c1)c1ccco1
i	-1.0	O=S(=O)(c1ccc2nc(Cc3cccc(C(F)(F)F)c3)[nH]c2c1)N1CCOCC1
.	-1.0	O=C(NCc1n[nH]c(=S)n1-c1ccccc1)c1ccc(S(=O)(=O)N2CCOCC2)cc1
.	2.9	CC(=O)Nc1nonc1-c1nc2ccccc2n1CCC(C)C
i	-0.5	Cc1cc(C(=O)N2CCN(C/C=C/c3ccccc3)CC2)no1
.	0.0	O=C(C1CCCN(S(=O)(=O)Cc2ccccc2)C1)N1CCCCC1 (configuration not stated)
i	-0.8	COc1ccc(C(=O)CSc2nnc(CNc3ccc(C)cc3C)o2)cc1
.	13	c1ccc2c(c1)nc(NCC1CCCO1)c1nnnn12 (configuration not stated)
.	-0.3	CC(CNCc1ccc2c(c1)OCO2)NCc1ccc2c(c1)OCO2 (configuration not stated)
i	3.4	COC(=O)c1oc2ccc(OC)cc2c1N
i	0.3	O=S1(=O)C=C(Sc2nc3ccccc3s2)c2ccccc21
i	-0.6	O=C(CSc1nnc(-c2ccccc2)o1)N1CCN(c2ccccc2)CC1
.	0.8	c1nc(N2CCCC2)c2[nH]cnc2n1
.	-0.7	COc1cccc(C2=CC(c3cccc(OC)c3OC(F)F)n3nnnc3N2)c1 (configuration not stated)
i	1.4	COc1ccccc1Oc1ccc(S(=O)(=O)N2CCOCC2)cc1S(=O)(=O)N1CCOCC1
.	-1.8	O=C1SC(c2ccccc2)=C/C1=C\N1CCCCC1
i	-0.8	Nn1c(SCC(=O)NC2CCCCC2)nnc1C1CC1
i	2.5	COc1ccccc1C(O)P(=O)(OC(C)C)c1ccc(N(C)C)cc1 (configuration not stated)
.	1.4	O=C(NCc1ccc2c(c1)OCO2)C1CC(=O)N(C2CCCCCCC2)C1 (configuration not stated)
.	-0.3	CCc1ccccc1NC1c2ccccc2C(=O)N1Cc1ccco1 (configuration not stated)
.	2.4	O=C(NCc1ccco1)C1CCN(c2nc3ccccc3n2Cc2ccc(F)cc2)CC1
.	-1.0	CCOC(=O)C1=C(C)NC(=O)NC1c1ccc(C)o1 (configuration not stated)
i	10	N#Cc1c(N)n(CCOC(=O)c2cccc(Br)c2)c2nc3ccccc3nc12
.	2.4	O=C(NC1CCCCCC1)C1CCN(c2nc3ccccc3o2)CC1
i	-0.7	O=C(Nc1ccccn1)NC(C(F)(F)F)C(F)(F)F
.	-0.2	COc1ccc(CCNC(=O)C2CCN(S(=O)(=O)c3cccc4nonc34)CC2)cc1OC
.	-0.2	Cc1ccc(Cn2ccc(NC(=O)C3C4CCC(C4)C3C(=O)O)n2)cc1 (configuration not stated)
.	4.4	Cc1ccc(-n2c(=O)c3sccc3n(CC(=O)N3CCCC3)c2=O)cc1
i	0.7	N#CCSc1nc(-c2ccccc2)cs1
.	-0.8	CCOc1ccc(C2C(C(=O)NC)=C(C)Nc3nc4ccccc4n32)cc1OC (configuration not stated)
i	-1.5	CCN(Cc1cc2cc(OC)ccc2[nH]c1=O)C(=O)c1ccncc1
.	0.8	COc1ccccc1N1CCN(CCCNC(=O)Nc2ccccc2C)CC1
.	-0.6	CC(=O)C1C(=O)C=C(c2ccco2)CC1c1ccccc1 (configuration not stated)
.	-1.9	O=C(O)c1cccnc1SCC(=O)N1CCCCCC1
.	1.8	O=C(CSC1=NS(=O)(=O)c2ccccc21)Nc1ccccc1
.	0.1	O=c1[nH]c2c(s1)C(c1ccccc1)C1C3CCC(C3)C1S2 (configuration not stated)
.	3.7	CCN(CCCNC(=O)C1CCC(=O)N1Cc1ccc(C)cc1)c1cccc(C)c1 (configuration not stated)
.	0.9	CCOC(=O)N1CCC(N2C(=O)c3ccccc3C2Nc2ccc3c(c2)OCCO3)CC1 (configuration not stated)
.	4.5	Cc1onc(-c2ccccc2Cl)c1C(=O)N1CCCCC1C(=O)O (configuration not stated)
i	-6.5	Cc1ccc2c(C(=O)CN3CCSCC3)c(C)[nH]c2c1
.	0.5	Cc1ccc(-c2ccc(=O)n(CC(=O)NCCCN3CCCCC3)n2)cc1
i	0.0	CCOC(=O)N1CCC(=C2c3ccc(Cl)cc3CCc3cccnc32)CC1
.	-1.4	O=C(CSc1nccc2ccccc12)N1CCN(c2ccccn2)CC1
.	-1.6	COc1cccc(C2CC(=O)Nc3cc(OC)c(OC)c(OC)c32)c1OC (configuration not stated)
.	1.3	O=C(c1noc2c1CCCC2)N1CCN(C(c2ccccc2)c2ccccc2)CC1
i	-1.1	Cc1ccc(S(=O)(=O)N2CCN(C(=O)c3cc(=O)[nH]c4ccccc34)CC2)c(C)c1
.	-0.1	CC(=O)N1CCN=C1SCc1ccccc1Cl
i	0.1	CCNC(=O)COc1ccc(Br)cc1Cl
.	0.0	CCOC(=O)c1ccc(NC(=O)CN(c2ccc(C)cc2)S(=O)(=O)c2c(C)n[nH]c2C)cc1
.	-1.9	O=C(c1ccc2c(=O)n(Cc3ccc4c(c3)OCO4)c(=S)[nH]c2c1)N1CCCCC1
.	0.1	Cc1noc(NS(=O)(=O)c2ccc(NC(=O)CSc3nc4c(cc3C#N)CCC4)cc2)c1C
.	-0.9	CN(CC(=O)NC1CCCCC1)S(=O)(=O)c1ccc(Br)s1
.	-0.1	O=C(c1ccco1)N1CCN(C(=O)c2cccn3c(=O)c4c5c(sc4nc23)CCCC5)CC1
.	0.7	c1ccc(Cc2nnc3sc(-c4ccco4)nn23)cc1
.	1.4	Cc1cc(OCC(O)CN(CCO)CCO)ccc1Cl (configuration not stated)

Not all compounds are listed, so the mix of outcomes need not match the whole.
